Source: PubChem BioAssay (several laboratories)
PrP UTR inh: suppresses PrP 5' UTR mRNA reporter expression. inhibition, % (no concentration beside the values). AID 488862. hit rate 0.35% among 340,000. cell-based PrP 5' UTR mRNA reporter, plate reader;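 active means every replicate at 50% or more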;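 further: 0 = median of the neutral control wells; tested in H4 reporter cells; numbers are from one replicate; inactives centre near -14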
Autofluor counter: flagged as autofluorescent in microsphere protease counterscreen. hit rate 3.1% among 360,000. compound autofluorescence counterscreen, microsphere flow cytometry; stronger effect = higher value. fluorescence intensity (test concentration not listed);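 active means at least 3 SD above the mean of all compounds, about 16000 in these data; inconclusive means too few beads counted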;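 further: 100 nL of 1 mM stock went into each well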
ugtP null kill: kills S. aureus RN4220 lacking UgtP; S. aureus RN4220 ugtP deletion, OD600 growth, 16 h; some inactives read as strong as hits; growth inhibition, % (concentration not given with the values); hit rate 0.54% among 330,000; AID 1259309;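 active means z-score under -3 and OD600 up to 0.15 on both plates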;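 further: plate controls were untreated wells for no effect and antibiotic for full effect; wells of about 80 µL received 100 nL stock; the first replicate is given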
BJeLR viability: BJeLR cell viability loss. BJeLR (HRASV12) viability, CellTiter-Glo ATP luminescence, 48 h; reference of the scale not given here. inhibition, % (no concentration beside the values). hit rate 0.17% among 300,000;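 active means replicate mean above 50%; inconclusive means above 50% but judged a plate artefact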;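 further: 50 nL library stock added to about 25 µL; numbers are from one replicate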
RN4220 kill: kills Staphylococcus aureus RN4220 | S. aureus RN4220 growth, OD600, 16 h | inhibition, % (test concentration not listed) | hit rate 0.33% among 330,000 | AID 1259311;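 active means z-score of -3 or lower and OD600 up to 0.18 on both plates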;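 further: plate controls were untreated cells for no effect and reference antibiotic for full effect; stock transfer was 100 nL into about 80 µL; one replicate is shown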
Mtb hypoxia rep: Mtb hypoxia fluorescent reporter inhibition; M. tuberculosis hypoxia-regulated fluorescent reporter, fluorescence; fluorescence inhibition, % (concentration not given with the values); hit rate 0.1% among 300,000;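 active means 35 to 45% if threefold the growth effect, above 45% if 1.5-fold the growth effect; inactive means the rest, general growth blockers included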;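 further: wells of about 50 µL received 100 nL stock; 0% = vehicle wells and 100% = reference inhibitor wells; whole bacteria with a GFP reporter of the hypoxia response; strong numbers were not always called active; many hits fall short of the cut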
Mtb hypoxia rep growth: second read-out of Mtb hypoxia rep, no call of its own (marks repeat the call); growth inhibition, %; measured here: M. tuberculosis growth (absorbance);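 0% = vehicle and 100% = reference antibiotic; read after six days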
Starred values were filed as active, the others as inactive; ? = inconclusive; · = not tested or not shown; & = joins results of further samples. Hits appear at their usual frequency; overall some 4% were active at least once.

Every second line gives: PrP UTR inh	Autofluor counter	ugtP null kill	BJeLR viability	RN4220 kill	Mtb hypoxia rep	Mtb hypoxia rep growth
> COc1ccc(S(=O)(=O)N2CCCC(C(=O)N3CCN(C)CC3)C2)cc1Cl (stereo not drawn)
 : -16	6367	7	4	2.4	7	5
> O=C(COc1ccc([N+](=O)[O-])cc1)N(Cc1cccs1)C1CCS(=O)(=O)C1 (stereo not drawn)
 : -20	5382	7	1	4.1	3	5
> Cn1cccc1C(=O)NCC(c1ccc(F)cc1)N1CCOCC1 (stereo not drawn)
 : -1	4405	6	2	4.3	-3	-10
> CCOC(=O)c1cc(C#N)c(SCC(=O)c2cc(C#N)c(SC)nc2C)nc1C
 : -17	5816	-22	-1	-4.2	16	7
> Cc1ccsc1/C=C1\SC(N2CCOCC2)=NC1=O
 : -32	2810	-17	6	-8.8	60*	36*
> Cc1ccc(-n2nc(CC#N)c(C#N)c2N)cc1
 : -57	2762	1	1	2.6	9	7
> COc1cc(OC)cc(C(=O)NC(=S)Nc2cccnc2)c1
 : -17	4686	-1	0	-1.6	·	·
> O=C(NCCCCc1ccccc1)C12CN(Cc3ccccc3)CC1C(c1cccc([N+](=O)[O-])c1)=NO2 (stereo not drawn)
 : 3	2878	5	-8	3.0	18	10
> O=S(=O)(Nc1cc(Sc2cccc3cccnc23)c(O)c2ccccc12)c1ccc(F)cc1
 : ·	·	16	14	27	·	·
> CC1=C(C(=O)OC(C)C)C(c2c[nH]c3ccccc23)n2ncnc2N1 (stereo not drawn)
 : 11	5790	-2	-1	17	-11	9
> COC(=O)C1=CN(Cc2ccccc2)C=C(C(=O)OC)C1c1cc(F)ccc1F
 : -4	3793	3	1	-5.1	8	6
> C#CCOC(=O)/C(=C/c1ccc(F)cc1)NC(C)=O
 : -18	2507	2	26	3.7	-3	-9
> COc1ccc(/C=C(\C#N)C(=O)OCC(=O)Nc2ccc(-c3nc4ccc(C)cc4s3)cc2)cc1
 : -12	3997	-3	-9	0.0	8	8
> Nc1nnnn1/N=C/c1cc(Cl)ccc1O
 : -15	4962	·	-10	·	·	·
> COc1ccc(N2CCN(C(=O)c3oc4ccccc4c3NC(=O)Cc3cccc(OC)c3)CC2)cc1
 : -9	5797	-7	9	8.9	-1	1
> COc1ccc2c(Cl)c(C(=O)NN3CCN(C)CC3)sc2c1
 : -11	4501	11	-13	11	-6	5
> CN(Cc1c(C(=O)NN=Cc2ccc(F)cc2)nnn1-c1nonc1N)C1CCCCC1
 : ·	·	-2	·	2.0	-5	3
> O=C(NN=Cc1ccc2cccc(OCc3ccccc3)c2n1)c1ccc(Cl)cc1
 : ·	·	-5	·	2.6	0	5
> Cc1cccn2c(=O)nc(SCC(=O)Nc3cccc4ccccc34)nc12
 : -14	7420	0	-7	2.7	0	-4
> CCOC(=O)c1ccc(N(C(=O)c2ccco2)C(C(=O)NC2CCCC2)c2ccncc2)cc1 (stereo not drawn)
 : -28	3901	11	3	1.1	1	4
> COc1ccccc1CCC(=O)N1CCN(S(=O)(=O)c2cccc(F)c2)CC1
 : -11	4970	1	0	1.7	-1	9
> CCCCCCn1c(SCC(=O)c2c(N)n(C)c(=O)n(C)c2=O)nc2ccccc21
 : -15	3862	0	7	-8.8	8	2
> COc1ccc(-c2cn(Cc3ccc(C)cc3)nn2)cc1
 : -59	3857	6	-5	7.3	24	12
> Clc1cccc(Cl)c1/C=C/c1nc2ccccc2[nH]1
 : -202	11603	5	-6	10	0	2
> CCNC(=O)Oc1ccc(-c2csnn2)cc1
 : -20	1947	11	4	4.3	9	-4
> CCS(=O)(=O)CCSc1nc(C)cc(C)c1C#N
 : -5	9052	0	0	3.6	-4	7
> O=C(Nc1cccc2ncccc12)c1ccccc1[N+](=O)[O-]
 : 3	3791	1	-4	3.1	0	20
> Cc1cc(CSc2ccccc2C(=O)O)on1
 : -5	3912	7	1	4.2	4	13
> NC(=O)COC(=O)[C@H](Cc1ccccc1)NS(=O)(=O)c1ccc2c(c1)OCCO2
 : -13	?	10	·	5.8	5	-3
> O=C(COC(=O)c1ccc(S(=O)(=O)N2CCCC2)cc1)NCc1ccccc1
 : -6	3114	-5	-4	-0.7	1	10
> C=CCN(CC=C)CCOc1ccccc1
 : -15	2740	2	-8	5.7	7	1
> CC(C)SCCCOc1ccc(C(C)(C)C)cc1
 : -3	3094	20	-2	-7.0	3	9
> Cn1c(O)c(/C=C/C=Nc2ccccc2)c(=O)n(C)c1=O
 : -8	2241	3	14	0.4	2	-2
> CCOC(=O)C1CCCN(S(=O)(=O)CCNC(=O)c2cccc(OC)c2)C1 (stereo not drawn)
 : -10	5686	11	-4	-2.6	0	2
> C[C@H](NC(=O)Cc1cccc2ccccc12)C(=O)N1CCCN(C)CC1
 : -1	3880	4	3	12	13	6
> CC1(C(=O)Oc2ccccc2)Cc2ccccc2C(=O)O1 (stereo not drawn)
 : -9	5871	8	0	5.3	9	6
> CCOC(=O)[C@H](CCc1ccccc1)N[C@@H](C)C(=O)N1CCC[C@H]1C(=O)O
 : -14&-11	4300&4464	·	1	·	·	·
> c1ccc(NCc2nnc3n2CCCCC3)cc1
 : -22	9075	4	-3	3.0	10	8
> O=C(C1CCN(S(=O)(=O)c2cccc3nsnc23)CC1)N1CCN(c2ccccc2F)CC1
 : -12	4747	8	-8	3.7	8	0
> O=C(Nc1nnc(-c2ccc3c(c2)OCCO3)o1)c1ccc(Cc2ccccc2)cc1
 : -37	5852	100*	9	99*	8	-2
> Cc1onc(-c2c(Cl)cccc2Cl)c1C(=O)Nc1ccc2c(c1)OCO2
 : -17	10172	-13	2	2.8	6	11
> Cc1ccc2c(CC(=O)Nc3ccc(F)c(S(=O)(=O)N4CCOCC4)c3)coc2c1
 : -11	9300	1	·	1.7	-5	1
> CC(C)C(NC(=O)c1c(F)cccc1F)C(=O)NCC(c1ccccc1)N(C)C (stereo not drawn)
 : -21	3476	7	-10	4.7	7	9
> O=C1CCCC(O)=C1C1C2=C(CCCC2=O)Oc2ccccc21 (stereo not drawn)
 : -6	21293*	2	-5	4.4	6	5
> O=C(NNC(=O)c1nn(-c2ccc(F)cc2)ccc1=O)c1ccc(Cl)cc1
 : -18	4077	-3	-12	4.1	-1	9
> O=C(O)c1cccc(NS(=O)(=O)c2ccc(S(=O)(=O)N3CCOCC3)cc2)c1
 : -6	6256	2	-9	2.7	7	6
> CNC(=O)/C=C1\NC(C)(C)Cc2ccccc21
 : -53	5259	9	-14	6.5	15	9
> Cc1ccccc1CN1CCNC(=O)C1CC(=O)N(C)CCC1CCOCC1 (stereo not drawn)
 : -20	6130	-1	10	1.5	8	5
> COc1ccc(C2CC(=O)C=C(c3ccc(-c4ccccc4)c(F)c3)C2)cc1OC (stereo not drawn)
 : ·	·	6	·	8.3	11	5
> CC(C)(CNC(=O)c1cc2c(s1)CCCC2)N1CCOCC1
 : -5	·	9	-7	3.3	5	0
> CCc1ccccc1NC(=O)CCS(=O)(=O)c1ccc(OC)cc1
 : -5	3600	10	-4	3.4	-2	4
> CCCCN(c1ccccc1)S(=O)(=O)N(C)C
 : 1	4674	-1	11	4.5	1	18
> O=C(CSc1nnc(-c2ccccn2)n1Cc1ccco1)Nc1ccc2c(c1)OCO2
 : -12	20585*	3	-5	5.4	1	1
> CN(CC(=O)Nc1ccc(F)cc1)C(=O)c1cccc(NS(=O)(=O)c2ccccc2)c1
 : -15	3818	5	·	1.0	22	9
> Cc1cc(=O)n(CC(=O)Nc2cc(Cl)ccc2C)c(C(C)C)n1
 : -12	4066	12	-2	4.9	4	2
> O=C(O)c1ccccc1-c1c2cc(I)c(=O)c(I)c-2oc2c(I)c(O)c(I)cc12
 : 7	3911&5108	-4	·	26	·	·
> CC(=O)N1CCN(C2=NC(=O)C(=C3CCCCC3)S2)CC1
 : -35	2410	-1	7	-8.7	·	·
> CC(=O)Nc1c(O)n(C)c2ccccc12
 : -32	7966	10	-9	1.1	9	0
> CCCCN(C1CCS(=O)(=O)C1)S(=O)(=O)c1cc(C)ccc1C (stereo not drawn)
 : -28	5253	8	-1	4.0	-5	-6
> CC(C)c1nnc(NC(=O)C2CCN(c3nc4ccccc4s3)CC2)s1
 : -19	10464	3	-9	4.5	0	-4

A portion taken from the entries so far, for reference:
Every second line gives: PrP UTR inh	Autofluor counter	ugtP null kill	BJeLR viability	RN4220 kill	Mtb hypoxia rep	Mtb hypoxia rep growth
> COc1ccc(S(=O)(=O)N2CCCC(C(=O)N3CCN(C)CC3)C2)cc1Cl (stereo not drawn)
 : -16	6367	7	4	2.4	7	5
> O=C(COc1ccc([N+](=O)[O-])cc1)N(Cc1cccs1)C1CCS(=O)(=O)C1 (stereo not drawn)
 : -20	5382	7	1	4.1	3	5
> Cn1cccc1C(=O)NCC(c1ccc(F)cc1)N1CCOCC1 (stereo not drawn)
 : -1	4405	6	2	4.3	-3	-10
> CCOC(=O)c1cc(C#N)c(SCC(=O)c2cc(C#N)c(SC)nc2C)nc1C
 : -17	5816	-22	-1	-4.2	16	7
> Cc1ccsc1/C=C1\SC(N2CCOCC2)=NC1=O
 : -32	2810	-17	6	-8.8	60*	36*
> Cc1ccc(-n2nc(CC#N)c(C#N)c2N)cc1
 : -57	2762	1	1	2.6	9	7
> COc1cc(OC)cc(C(=O)NC(=S)Nc2cccnc2)c1
 : -17	4686	-1	0	-1.6	·	·
> O=C(NCCCCc1ccccc1)C12CN(Cc3ccccc3)CC1C(c1cccc([N+](=O)[O-])c1)=NO2 (stereo not drawn)
 : 3	2878	5	-8	3.0	18	10
> O=S(=O)(Nc1cc(Sc2cccc3cccnc23)c(O)c2ccccc12)c1ccc(F)cc1
 : ·	·	16	14	27	·	·
> CC1=C(C(=O)OC(C)C)C(c2c[nH]c3ccccc23)n2ncnc2N1 (stereo not drawn)
 : 11	5790	-2	-1	17	-11	9

Carrying on:
Every second line gives: PrP UTR inh	Autofluor counter	ugtP null kill	BJeLR viability	RN4220 kill	Mtb hypoxia rep	Mtb hypoxia rep growth
> O=C(CSc1nc2ccccc2nc1N1CCOCC1)N1CCN(c2ccccc2)CC1
 : -23	6266	-4	-1	15	17*	52*
> CC1(C)OC2C(CO)OC(n3cnc4c(=O)[nH]cnc43)C2O1 (stereo not drawn)
 : ·	·	-2	·	0.9	-2	0
> O=C(CNC(=O)c1ccc(S(=O)(=O)N2CCCC2)cc1)NN=Cc1c(Cl)cccc1Cl
 : ·	·	0	·	16	7	5
> COc1ccc(N2CCN(C(=O)CSc3ncnc4scc(-c5ccc(C)cc5)c34)CC2)cc1
 : -12	?	-12	-9	-0.6	-7	5
> O=C(COc1cc(O)c2c(=O)cc(-c3ccccc3)oc2c1)c1ccccc1
 : -33	2454	-9	-14	-7.8	12	8
> COc1ccc(CN2C(=O)NC3(CCOc4ccccc43)C2=O)cc1F (stereo not drawn)
 : -6	2397	0	-17	5.1	0	-1
